Assay outcomes from PubChem.
MT1-MMP promoter: inhibitors of MT1-MMP promoter transcription, cell-based, luciferase reporter, luminescence (AID 618). MT1-MMP promoter luciferase reporter cells, luminescence. calls from a first round at 10 µM; hits with a dose series show EC50 in µM. hit rate 0.62% among 87,000;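 active = over half of the reporter light lost at 10 µM or EC50 under 50 µM; inactive = the rest and hits that failed the dose series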;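 note: actives suppress MT1-MMP promoter-driven transcription so potencies describe inhibitors; HT1080 fibrosarcoma cells; overnight exposure; toxic or luciferase-blocking compounds were not removed from the actives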
Calls only. Only part of the results is shown. The share of hits here may be higher or lower than overall.

COc1ccc(NC(=O)Nc2ccc(Br)cn2)cc1OC was read as MT1-MMP promoter inactive.
For Cc1ccc(OCCCC(=O)NC(C)c2ccccc2)cc1 (configuration not stated) the results were MT1-MMP promoter inactive.
Screening COC(=O)c1ccc(C23CC4(C2)[C@H](CN(CC2CCCCC2)[C@@H]4c2ccccc2)C3c2ccccc2)cc1 (some centres not stated) returned MT1-MMP promoter inactive.
`O=C(NCc1ccco1)c1ccc(Cn2c(=O)c3ccccc3n(Cc3cccc(Cl)c3)c2=O)cc1` gave MT1-MMP promoter inactive.
Screening Cc1cccc(NC(=O)CSc2nc3ccccc3c3nc(CCc4c(C)n[nH]c4C)nn23)c1 returned MT1-MMP promoter inactive.
`Cc1nc2c(C(=O)N3CCCC3)cnn2c(C)c1Cc1c(F)cccc1Cl` gave MT1-MMP promoter inactive.
Screening CCCCNC(=O)C(c1ccc(OCC(=O)OC)c(C(=O)OC)c1)N(CCC1=CCCCC1)C(=O)CCCCCN1C(=O)NC(c2ccc(-c3ccccc3)cc2)C(C(=O)OCc2ccccc2)=C1C (configuration not stated) returned MT1-MMP promoter inactive.
Screening O=C(NC(=S)Nc1cccc(Cl)c1N1CCCC1)c1ccc(-c2cccc([N+](=O)[O-])c2)o1 returned MT1-MMP promoter inactive.
Screening CCCN1Cc2cccc(C(=O)NCc3ccccc3OC)c2C1=O returned MT1-MMP promoter inactive.
For O=C1C(C=NC2CC2)=C(O)c2ccccc21 the results were MT1-MMP promoter inactive.
Screening COC(=O)N1[C@H](C)C=C[C@]1(Cc1ccccc1)C(=O)NCc1ccccn1 returned MT1-MMP promoter inactive.
Screening CCOC(=O)C1=C(CCc2ccccc2)NC(=O)NC1c1ccc(Br)cc1 (configuration not stated) returned MT1-MMP promoter inactive.
For CN(C)c1ccc(N/C=C/C(=O)C(C)(C)C)cc1 the results were MT1-MMP promoter inactive.
For CN1CCC(=NNC(=O)C(=O)NC(C)(C)C)CC1 the results were MT1-MMP promoter inactive.
Cc1cccc(OCC(=O)Nc2cccc3nsnc23)c1 was read as MT1-MMP promoter inactive.
For CCOC(=O)N1CCN(c2c(NCCCN(CC)CC)c(=O)c2=O)CC1 the results were MT1-MMP promoter inactive.
COC(=O)[C@@]1(Cc2ccc(OC)cc2)[C@H]2c3cc(C(=O)N(C)C)n(Cc4ccc(O)c(OC)c4)c3C[C@H]2CN1C(=O)c1ccccc1 was read as MT1-MMP promoter inactive.
For c1ccc(-c2c3ccccc3nc3[nH]c4ccccc4c23)cc1 the results were MT1-MMP promoter inactive.
CCCCNC(=O)C(c1ccc(-c2ccccc2)cc1)N(CCN1CCOCC1)C(=O)CCCCCN1C(=O)NC(c2ccc([N+](=O)[O-])cc2)C(C(=O)OCc2ccccc2)=C1C (configuration not stated) was read as MT1-MMP promoter inactive.
COc1ccc(/C=C/c2ccncc2)c2ccccc12 was read as MT1-MMP promoter inactive.
CCn1ncc(C2=NOC(C(=O)Nc3ccc(C)cc3)C2)c1C (configuration not stated) was read as MT1-MMP promoter inactive.
`CC(=O)c1cccc(NS(=O)(=O)c2cc(OCC(N)=O)c(C)cc2Cl)c1` gave MT1-MMP promoter inactive.
For COC(=O)[C@@]1(Cc2ccc(OC)cc2)[C@H]2c3cc(C(=O)N(C)C)n(Cc4ccc(OC)c(OC)c4)c3C[C@H]2CN1C(=O)c1ccccc1 the results were MT1-MMP promoter inactive.
For Cn1c(NC(=O)COc2ccccc2)cc(=O)n(C)c1=O the results were MT1-MMP promoter inactive.
O=C1CCCN1c1ccc(S(=O)(=O)NCCc2ccc(Cl)cc2)cc1 was read as MT1-MMP promoter inactive.
CCN(CC)Cc1cc(CCNC(=O)c2ccc(Cl)cc2)ccc1O was read as MT1-MMP promoter inactive.
Screening COc1ccccc1/C=N/NC(=Nc1ccc(C)cc1)c1nc2ccccc2s1 returned MT1-MMP promoter inactive.
For CC1(C)Cc2c(sc3nc(-c4ccccc4Cl)n(N)c(=O)c23)CO1 the results were MT1-MMP promoter inactive.
Screening CCCC[C@@H]1C[C@H]1C(NC(=O)c1ccco1)c1ccc(Cl)cc1 (some centres not stated) returned MT1-MMP promoter inactive.
For CCOc1ccc(C(=O)Nc2ccccc2N2CCCC2)cc1 the results were MT1-MMP promoter inactive.
`Nc1c(C(=O)NCc2ccco2)nnn1CC(=O)Nc1ccccc1` gave MT1-MMP promoter inactive.
`CCCNc1cc(C)oc(=O)c1C(=O)CCC` gave MT1-MMP promoter inactive.
`CCn1c(=O)cc(OCC(=O)NC(C)c2ccc3c(c2)OCCO3)c2ccccc21` (configuration not stated) gave MT1-MMP promoter inactive.
COCCNC(=O)C1(C)C=CCN1C(C)=O (configuration not stated) was read as MT1-MMP promoter inactive.
For COC(=O)[C@@]1(Cc2ccccc2)[C@@H]2C(=CC(=O)[C@H]2CC(=O)C(=O)N(C)C)CN1C(=O)c1ccccc1 the results were MT1-MMP promoter inactive.
For CC(C)CCNC(=O)CNC(=O)c1cccs1 the results were MT1-MMP promoter inactive.
For Cc1cc(C)c(NC(=O)c2ccoc2C)c(C)c1 the results were MT1-MMP promoter inactive.
Screening C[C@@H](C(=O)Nc1ccc2ccccc2c1)[C@H]1C[C@]1(C)[C@H](NP(=O)(c1ccccc1)c1ccccc1)c1ccccc1 returned MT1-MMP promoter inactive.
CC1=C(C(=O)OCc2ccccc2)C(c2ccccc2Cl)NC(=O)N1CCCCCC(=O)O (configuration not stated) was read as MT1-MMP promoter inactive.
`O=C1CC(c2ccccc2)CCc2sccc2N1` (configuration not stated) gave MT1-MMP promoter inactive.

Reprinted at random: seven records from the list.
`Nc1c(C(=O)NCc2ccco2)nnn1CC(=O)Nc1ccccc1` gave MT1-MMP promoter inactive.
For CC(C)CCNC(=O)CNC(=O)c1cccs1 the results were MT1-MMP promoter inactive.
For COC(=O)[C@@]1(Cc2ccccc2)[C@@H]2C(=CC(=O)[C@H]2CC(=O)C(=O)N(C)C)CN1C(=O)c1ccccc1 the results were MT1-MMP promoter inactive.
`O=C1CC(c2ccccc2)CCc2sccc2N1` (configuration not stated) gave MT1-MMP promoter inactive.
Screening C[C@@H](C(=O)Nc1ccc2ccccc2c1)[C@H]1C[C@]1(C)[C@H](NP(=O)(c1ccccc1)c1ccccc1)c1ccccc1 returned MT1-MMP promoter inactive.
`CCCNc1cc(C)oc(=O)c1C(=O)CCC` gave MT1-MMP promoter inactive.
For Cc1cc(C)c(NC(=O)c2ccoc2C)c(C)c1 the results were MT1-MMP promoter inactive.

Next section:
`CCCCCC1=C2CNC(C)(C(=O)OC)C=C2C(C)C1=O` (configuration not stated) gave MT1-MMP promoter inactive.
Cc1ccc(C)c(NC2=C(Cl)C(=O)OC2OC(=O)c2ccco2)c1 (configuration not stated) was read as MT1-MMP promoter inactive.
CCCCN(CC)C(=O)c1cc2cc3ccc(OC)cc3nc2o1 was read as MT1-MMP promoter inactive.
For Fc1ccccc1/C=C1\CCCC2=C1Nc1ncnn1C2c1ccccc1F (configuration not stated) the results were MT1-MMP promoter inactive.
`Cc1cc(S(=O)(=O)NC2CCCCC2)ccc1OCC(=O)N1CCOCC1` gave MT1-MMP promoter inactive.
`Cc1nc([N+](=O)[O-])c(Br)n1CC(=O)c1ccc(Cl)cc1` gave MT1-MMP promoter inactive.
Screening COC(=O)c1ccc(C(NC(=O)OCc2ccccc2)/C(I)=C/[C@@H](C)C(=O)NCC2CC2)cc1 (some centres not stated) returned MT1-MMP promoter inactive.
For CCOC(=O)C1=C(COc2ccccc2)NC(=O)NC1c1ccc(Cl)cc1 (configuration not stated) the results were MT1-MMP promoter inactive.
`COC(=O)c1ccc2c(=O)n(CCCCCC(=O)NCc3ccc4c(c3)OCO4)c(=O)[nH]c2c1` gave MT1-MMP promoter inactive.
`O=C(Nc1cccc(C(=O)N2CCN(Cc3ccccc3)CC2)c1)c1ccccc1` gave MT1-MMP promoter inactive.

Already shown: an excerpt of the list.
For O=C1C(C=NC2CC2)=C(O)c2ccccc21 the results were MT1-MMP promoter inactive.
Screening COC(=O)N1[C@H](C)C=C[C@]1(Cc1ccccc1)C(=O)NCc1ccccn1 returned MT1-MMP promoter inactive.

Next section:
Screening Cc1ccc(N/C(SCc2ccccc2C)=C(/C#N)C(=O)NCc2ccco2)cc1C returned MT1-MMP promoter inactive.
Screening COC(=O)c1ccc(C(NC(=O)OCc2ccccc2)/C(C)=C/[C@@H](C)C(=O)NCCN2CCOCC2)cc1 (some centres not stated) returned MT1-MMP promoter inactive.
For COc1ccc(N2C(=O)CCC(C(=O)NCc3ccccn3)C2c2ccc(F)cc2)cc1 (configuration not stated) the results were MT1-MMP promoter inactive.
`CCOC(=O)C1=C(C)NC2=C(C(=O)C(C(=O)OCC)C(c3ccc(OC)cc3)C2)C1c1ccccn1` (configuration not stated) gave MT1-MMP promoter inactive.
For COC(=O)c1ccc(C(NC(=O)OCc2ccccc2)/C(C)=C/[C@@H](C)CO)cc1 (some centres not stated) the results were MT1-MMP promoter inactive.
`COC(=O)[C@@]1(Cc2ccc(OC)cc2)[C@H]2c3cc(C(=O)N4CCCC4)n(Cc4ccc(OC)c(OC)c4)c3C[C@H]2CN1C(=O)c1ccccc1` gave MT1-MMP promoter inactive.
For COC(=O)[C@@]1(Cc2ccc(OC)cc2)[C@H]2c3cc(C(=O)N4CCCC4)n(CCc4c[nH]c5ccc(O)cc45)c3C[C@H]2CN1C(=O)c1ccccc1 the results were MT1-MMP promoter inactive.
`O=C(NCc1ccccc1)c1ccc(CN(c2ccccn2)S(=O)(=O)c2ccccc2)cc1` gave MT1-MMP promoter inactive.
Screening COC(=O)CNC(=O)C1(CC(C)C)C=CCN1C(C)=O (configuration not stated) returned MT1-MMP promoter inactive.
For CC(=O)NCCn1c(SCc2ccc(C)cc2C)nc2ccccc2c1=O the results were MT1-MMP promoter inactive.
Cc1ccc(NC(=S)N2CCC(N(C)CC3CCCO3)CC2)c(C)c1 (configuration not stated) was read as MT1-MMP promoter inactive.
CCC1=C2CC[C@H]3C(=O)N(CC)C(=O)[C@H]3[C@H]2[C@@]2(Cc3ccccc3)C(=O)N(CCOC)C(=O)N2C1=O was read as MT1-MMP promoter inactive.
Screening COc1cccc(Nc2nc(CC(C)=O)ns2)c1 returned MT1-MMP promoter inactive.
Screening CCCC[C@H]1C[C@@H]1[C@@H]1N(P(=O)(c2ccccc2)c2ccccc2)C[C@@](O)(c2ccccc2)CC12CC2 returned MT1-MMP promoter inactive.
`O=C(CSCCc1ccccn1)Nc1ccc(Br)cn1` gave MT1-MMP promoter inactive.
For C[C@@H](C(=O)Nc1ccc2ccccc2c1)[C@@H]1C[C@@]1(C)[C@@H](NS(=O)(=O)c1ccccc1)c1ccccc1 the results were MT1-MMP promoter inactive.
Screening COc1ccccc1N1CCN(C(=O)CSc2nc(C)cc(=O)[nH]2)CC1 returned MT1-MMP promoter inactive.
`COC(=O)[C@@]1(Cc2ccc(OC)cc2)[C@H]2c3cc(C(=O)N(C)C)n(Cc4ccccn4)c3C[C@H]2CN1C(=O)c1ccccc1` gave MT1-MMP promoter inactive.
For CCC1=C(OC(=O)N(CC)CC)N2C(=O)OC(=NCC3CC3)[C@]2(Cc2ccccc2)[C@H]2C1=CC[C@H]1C(=O)N(C)C(=O)[C@H]12 the results were MT1-MMP promoter inactive.
For O=C(CN1CCCCCC1)Nc1ccc(Br)cc1 the results were MT1-MMP promoter inactive.
COC(=O)C1=C(CCc2ccccc2)NC(=O)NC1c1cccc([N+](=O)[O-])c1 (configuration not stated) was read as MT1-MMP promoter inactive.
Screening CCC(C)NC(=O)c1cc(C)no1 (configuration not stated) returned MT1-MMP promoter inactive.
Screening O=C(NCc1ccccc1)c1csc2c1CCCCC2 returned MT1-MMP promoter inactive.
For CCOc1ccc(N2C(=O)c3cccnc3C2Nc2ccc(C)c(C)c2)cc1 (configuration not stated) the results were MT1-MMP promoter inactive.
For COC(=O)[C@@]1(Cc2ccc(F)cc2)[C@H]2c3cc(C(=O)N(C)C)n(Cc4ccccn4)c3C[C@H]2CN1C(=O)c1ccccc1 the results were MT1-MMP promoter inactive.
Screening COc1ccc(CCNc2nc(-c3sc(C)nc3C)cs2)cc1OC returned MT1-MMP promoter inactive.
For COn1c2c(c3c4nonc4ccc31)CCCC2 the results were MT1-MMP promoter inactive.
O=[N+]([O-])c1cccc(/C=C/c2nc(C=Nc3ccccc3)c(O)o2)c1 was read as MT1-MMP promoter inactive.
Screening CCN(CC)c1nc(C(N)=O)cc(-c2ccccc2)n1 returned MT1-MMP promoter inactive.
`CCOC(=O)CSc1nc2ccccc2c(=O)n1-c1ccc(C(=O)NCCOC)cc1` gave MT1-MMP promoter inactive.
Screening Cc1ccc(NC(=O)c2cc(NC(=O)C3CC=CCC3C(=O)O)ccc2N2CCOCC2)cc1Cl (configuration not stated) returned MT1-MMP promoter inactive.
For COc1ccc2nc(NC(=O)Cc3cccs3)sc2c1 the results were MT1-MMP promoter inactive.
`COC(=O)N1CC=CC1(C)C(=O)NCc1ccc(C)o1` (configuration not stated) gave MT1-MMP promoter inactive.
Screening CCc1c(C(=O)N2CCN(c3ccccc3F)CC2)[nH]c(C)c1C(C)=O returned MT1-MMP promoter inactive.
CC(=O)Oc1ccccc1/C=C1\CCOC1=O was read as MT1-MMP promoter inactive.
For COC(=O)c1cc(NS(=O)(=O)c2ccc(NC(C)=O)cc2)cc(C(=O)OC)c1 the results were MT1-MMP promoter inactive.
`CC1(C)NC(=O)N(CCOCCOc2ccc3ccccc3c2Br)C1=O` gave MT1-MMP promoter inactive.
